# Bead autofluor = compound fluorescence in toxin protease inhibitor counterscreen. compound autofluorescence counterscreen, microsphere flow cytometry; stronger effect = higher value. fluorescence intensity (no concentration beside the values). 360,000 tested, 3.1% active;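 active means at least 3 SD above the mean of all compounds, about 16000 in these data; inconclusive means too few beads counted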;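 further: 100 nL of 1 mM stock went into each well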
# BJeLR viability = kills HRASV12-expressing BJeLR cells; AID 1554; 300,000 tested, 0.17% active; BJeLR (HRASV12) viability, CellTiter-Glo ATP luminescence, 48 h; reference of the scale not given here; inhibition, % (test concentration not listed);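 active means replicate mean above 50%; inconclusive means above 50% but judged a plate artefact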;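 further: 50 nL library stock added to about 25 µL; numbers are from one replicate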
# Mtb hypoxia rep = inhibitors of hypoxia-regulated fluorescent reporter in Mycobacterium tuberculosis; M. tuberculosis hypoxia-regulated fluorescent reporter, fluorescence; fluorescence inhibition, % (no concentration beside the values); 300,000 tested, 0.1% active; AID 1159583;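 active means 35 to 45% if threefold the growth effect, above 45% if 1.5-fold the growth effect; inactive means the rest, general growth blockers included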;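 further: wells of about 50 µL received 100 nL stock; 0% = vehicle wells and 100% = reference inhibitor wells; whole bacteria with a GFP reporter of the hypoxia response; strong numbers were not always called active; many hits fall short of the cut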
# Sa RN4220 lethal = kills Staphylococcus aureus RN4220; S. aureus RN4220 growth, OD600, 16 h; inhibition, % (concentration not given with the values); 330,000 tested, 0.33% active; AID 1259311;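 active means z-score of -3 or lower and OD600 up to 0.18 on both plates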;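 further: plate controls were untreated cells for no effect and reference antibiotic for full effect; stock transfer was 100 nL into about 80 µL; one replicate is shown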
# ugtP null kill = compounds lethal to S. aureus RN4220 ugtP deletion mutant. growth inhibition, % (concentration not given with the values). OD600 growth, 16 h; some inactives read as strong as hits. 330,000 tested, 0.54% active;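 active means z-score under -3 and OD600 up to 0.15 on both plates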;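 further: plate controls were untreated wells for no effect and antibiotic for full effect; wells of about 80 µL received 100 nL stock; the first replicate is given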
# PrP UTR inh = suppresses PrP 5' UTR mRNA reporter expression; cell-based PrP 5' UTR mRNA reporter, plate reader; AID 488862; inhibition, % (no concentration beside the values); 340,000 tested, 0.35% active;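 active means every replicate at 50% or more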;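 further: 0 = median of the neutral control wells; tested in H4 reporter cells; numbers are from one replicate; inactives centre near -14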
# Mtb hypoxia rep growth = also measured in Mtb hypoxia rep; calls as there; growth inhibition, %; measured here: M. tuberculosis growth (absorbance);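 0% = vehicle and 100% = reference antibiotic; read after six days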
# Active calls of the source: *; ? = inconclusive; nt = not tested or not shown.
SMILES,Bead autofluor,BJeLR viability,Mtb hypoxia rep,Mtb hypoxia rep growth,Sa RN4220 lethal,ugtP null kill,PrP UTR inh
CC(C)[C@H](NS(=O)(=O)c1cccc(C(F)(F)F)c1)C(=O)OCC(=O)NC(=O)NCc1ccco1,nt,nt,5,3,3.3,-3,-12
Cc1cc(C)cc(N2CN=C3SCC(=O)N3C2)c1,2068,-7,8,15,-1.0,1,-5
CCN(C(=O)COC(=O)CNC(=O)c1cccc(C)c1)c1c(N)n(Cc2ccccc2)c(=O)[nH]c1=O,?,1,2,-1,2.9,2,-14
Cc1cc(C)nc(SCC(=O)c2ccc(Cl)cc2)n1,3172,-8,5,11,4.0,3,-13
Cc1sc2nc3n(c(=O)c2c1C)CCCCC3,nt,-10,14,-15,-11,-3,-5
O=C(CN1CCC2(CC1)OCCO2)c1ccc2cc[nH]c2c1,7663,7,4,5,-0.3,2,-28
CCOC(=O)CCc1c(C)c2ccc(OCc3cc([N+](=O)[O-])ccc3OC)cc2oc1=O,3367,12,-6,8,-6.1,-13,-11
COC(=O)C(Cc1ccccc1)NC(=O)c1ccc(C)cc1 (stereo not drawn),2031,2,3,1,-2.9,-13,-48
COc1cccc(NC(=O)C2c3cc(OC)c(OC)cc3C(=O)N(C)C2c2cccnc2)c1 (stereo not drawn),9571,9,-8,-2,0.1,-1,0
Cc1occc1-c1nnc(SCC(=O)c2ccccc2)n1CC1CCCO1 (stereo not drawn),5052,-3,10,6,2.9,-18,0
Cc1ccc(/C=N/n2c(-c3ccc(Cl)cc3)n[nH]c2=S)s1,4389,2,nt,nt,nt,nt,-31
O=C(CCCN1C(=O)/C(=C/c2ccccc2Cl)SC1=S)Nc1cccnc1,5450,0,14,3,-2.8,-8,-34
CCCCCCC=NNc1nnc(Cc2ccc(OC)c(OC)c2)c(=O)[nH]1,nt,nt,1,1,-0.9,-5,nt
COc1ccc(-c2noc(C3CCCN(S(=O)(=O)c4ccc(C)c(Cl)c4)C3)n2)cc1OC (stereo not drawn),10387,-23,-4,-7,1.3,6,-63
COc1ccc(NC(=O)N(C)C[C@H]2Oc3ccc(NC(=O)C4CC4)cc3CC(=O)N([C@@H](C)CO)C[C@@H]2C)cc1,3883,nt,-2,5,4.9,1,-12
CC(C)n1ncc2c(C(=O)N3CCN(c4ccccc4)CC3)cc(-c3ccccc3)nc21,6142,nt,2,-3,1.3,6,-7
COc1cccc(CN2CC(C(=O)N(C)Cc3ccc(C)cc3)CCC2=O)c1 (stereo not drawn),nt,4,14,2,1.5,5,-25
Cc1ccc(C(C)C)c(OCc2nnc(SCC(=O)Nc3nccs3)n2C)c1,17809*,-2,9,10,2.0,6,-19
O=S(=O)(Cc1cccc(C(F)(F)F)c1)c1ncn[nH]1,4851,3,6,1,0.9,-1,-28
CC(C)c1c(C(=O)N/N=C/C2CC=CCC2)nnn1-c1nonc1N (stereo not drawn),3748,-7,nt,nt,nt,nt,-4
Cc1cc(C(=O)N2CCc3ccccc32)c2cc(F)ccc2n1,2527,2,-6,-8,26,13,-18
CCOC(=O)c1c(C)cc(C)n2c1nc1ccccc12,4455,9,-3,-1,4.8,2,-31
O=C(CSc1nnnn1-c1ccccc1)Nc1ncc2c(n1)CC(c1ccccc1)CC2=O (stereo not drawn),9769,-9,12,1,0.1,-1,-3
CCOC(=O)/C=C1\SCC(=O)N1CC(=O)Nc1ccc(OC)c(OC)c1,3678,2,nt,nt,2.9,3,-22
O=C(CSc1nc2ccc(Cl)cc2[nH]1)NCc1ccco1,3858,0,nt,nt,nt,nt,-6
O=C(Nc1cc(S(=O)(=O)N2CCOCC2)ccc1OCC(F)(F)F)C1=COCCO1,?,-1,14,2,4.6,12,-5
CCC1CCc2c([nH]c3ccccc3c2=O)O1 (stereo not drawn),2090,0,4,-5,6.7,1,-4
COc1ccc(N(C)S(=O)(=O)c2cccc(C(=O)N(C)Cc3ccc(C)o3)c2)cc1,3533,-6,3,-2,8.2,9,-10
O=C(CSc1ncn[nH]1)Nc1c(Br)cc([N+](=O)[O-])cc1Br,3002,18,-4,3,12,10,-24
CC(=O)N1CCN(c2ccc(NC(=O)c3ccc([N+](=O)[O-])cc3)cc2)CC1,3688,10,-2,3,1.0,1,-21
CC1CC(=S)Nc2ccccc2N1C(=O)Nc1ccccc1 (stereo not drawn),1983,13,10,12,15,-4,-13
Cc1cc(C)c2sc(N(CCN(C)C)C(=O)c3ccc4ccccc4c3)nc2c1,5312,0,11,-13,-4.1,-8,-18
C/[N+]([O-])=C\CC(=O)c1ccc(-c2ccccc2)cc1,3066,2,-3,1,-1.9,-3,-17
CCN(CC)c1ccc(/C=C2\C(=O)NC(=O)N(Cc3ccco3)C2=O)cc1,3111,-2,7,9,2.9,11,-17
O=[N+]([O-])c1cccnc1N1CCOCC1,19529*,5,5,1,1.0,-1,-18
CCN1CCN(CC(=O)NC2CCCC2)C(=O)C1=O,6140,-5,12,3,2.2,11,-13
CN(C(=O)CSc1ncnc2sccc12)C1CCCCC1,4020,nt,12,1,3.0,-3,-112
Cc1ccccc1N,4114,nt,1,0,5.4,11,-1
O=C(NCC1CCCO1)c1onc(CSc2ccc(F)cc2)c1C(=O)O (stereo not drawn),4090,14,4,10,2.8,-13,-9
CCC(C)(C(=O)NC1CCCCC1)N(Cc1cccs1)C(=O)CC1NC(=O)NC1=O (stereo not drawn),2023,-6,7,4,1.9,-3,-78
CCOC(=O)c1cccc(NC(=O)c2cc3sccc3n2C)c1,26158*,-2,1,2,9.7,1,-96
Cc1cc(Cl)nc2c(C(C)C)cccc12,3242,2,1,1,2.1,27,-19
CCSc1nnc([C@H](Cc2c[nH]c3ccccc23)NC(=O)OC(C)(C)C)o1,8849,-3,10,7,11,-10,-16
CCOc1ccc(NC(=O)Nc2ccc3nsnc3c2)cc1,1885,15,8,5,-2.1,-12,-39
CCN1CCN(C(=S)Nc2ccccc2Cl)CC1,4755,1,nt,nt,2.8,0,-8
COCCN(CCOC)S(=O)(=O)c1ccc(C(=O)Nc2ccc([N+](=O)[O-])cc2OC)cc1,3783,1,4,8,5.7,4,-10
CCOc1ccc(C2=Nn3cnnc3SC2)cc1,22944*,-1,-13,-16,-5.7,-3,-31
O=C(Nc1ccc(NC(=O)c2sc3ccccc3c2Cl)cc1Cl)c1ccco1,19130*,8,-9,4,4.0,-20,-16
CCC(=O)c1ccc(OCc2ccc(C(=O)OC)o2)c(OC)c1,2503,-10,8,6,-17,-8,-18
CCn1c(SCC(=O)N(C)C2CCS(=O)(=O)C2)nnc1-c1cccs1 (stereo not drawn),4432,0,11,7,5.8,4,-9
C=CCc1ccc(OCC(O)COCC)c(OC)c1 (stereo not drawn),3503,-6,11,1,-2.3,1,-66
CC(CCC(C)C)=NNc1ccc(S(N)(=O)=O)cc1[N+](=O)[O-],nt,nt,16,17,8.6,19,nt
CCCC(CNC(CNC)C(C)CC)NCC1CCC(C(C)(C)C)CC1 (stereo not drawn),nt,nt,23,28,-0.7,-3,nt
COc1ccc(C(CNC(=O)c2cccc(S(=O)(=O)N3CCCCC3)c2)N2CCCC2)cc1 (stereo not drawn),9930,nt,11,5,9.4,11,12
CSc1ccccc1C(=O)Nc1ncc(C)s1,3599,4,12,8,8.6,2,-19
Cn1c(NCCCO)nc2c(c1=O)C1(CCCCC1)Cc1ccccc1-2,5186,nt,nt,nt,0.1,3,-10
CCOC(=O)c1sc(NC(=O)c2ccccc2OCC)nc1C,3748,3,11,3,-0.8,2,-23
O=C(CN(C(=O)CNC(=O)c1ccco1)c1ccc(Cl)c(Cl)c1)NC1CCCCC1,3888,-15,nt,nt,2.0,3,-16
Cn1nccc1C(=O)NC(=S)Nc1sc2c(c1C#N)CCCCC2,3347,2,2,-1,0.3,16,-119
O=C(c1ccc(CS(=O)c2cccc(Cl)c2)o1)N1CCN(C2CCCCC2)CC1 (stereo not drawn),4569,-6,3,1,3.2,1,-1

# For convenience, 5 of the compounds above.
SMILES,Bead autofluor,BJeLR viability,Mtb hypoxia rep,Mtb hypoxia rep growth,Sa RN4220 lethal,ugtP null kill,PrP UTR inh
CC(C)[C@H](NS(=O)(=O)c1cccc(C(F)(F)F)c1)C(=O)OCC(=O)NC(=O)NCc1ccco1,nt,nt,5,3,3.3,-3,-12
Cc1cc(C)cc(N2CN=C3SCC(=O)N3C2)c1,2068,-7,8,15,-1.0,1,-5
CCN(C(=O)COC(=O)CNC(=O)c1cccc(C)c1)c1c(N)n(Cc2ccccc2)c(=O)[nH]c1=O,?,1,2,-1,2.9,2,-14
Cc1cc(C)nc(SCC(=O)c2ccc(Cl)cc2)n1,3172,-8,5,11,4.0,3,-13
Cc1sc2nc3n(c(=O)c2c1C)CCCCC3,nt,-10,14,-15,-11,-3,-5

# Further records:
SMILES,Bead autofluor,BJeLR viability,Mtb hypoxia rep,Mtb hypoxia rep growth,Sa RN4220 lethal,ugtP null kill,PrP UTR inh
CC(C)Cc1cc(C(=O)Nc2ccc(F)cc2F)no1,5806,-1,8,1,-18,3,-72
Cc1ccc(SCCNC(=O)/C=C/c2ccc([N+](=O)[O-])cc2)cc1,2329,-5,12,4,-2.5,3,-3
CCN1CCN(CCCNC(=O)CS(=O)(=O)Cc2nc(-c3cccc(OC)c3)oc2C)CC1,6025,1,9,15,0.2,-1,-2
COc1ccccc1C(=O)NCCSCc1ccccc1Cl,3072,18,12,6,10,-1,-22
COc1ccc(OCCNC(=O)c2cc(C3CC3)nc3c2cnn3C(C)C)cc1,?,nt,-1,14,-0.9,4,10
O=C(CSc1nc(O)c(Cc2ccccc2)c(=O)[nH]1)c1ccccc1,4448,7,7,12,4.0,8,-8
CCOC(=O)c1[nH]c2ccc(OC)cc2c1NC(=O)CCN1CCCC(C)C1 (stereo not drawn),2323,2,nt,nt,1.3,10,-6
O=C(CSc1nc(-c2ccccc2Cl)ns1)c1ccc(Cl)cc1,1978,-9,0,1,5.0,6,-29
Clc1ccc(C2=NNC(=NCC3CCCO3)SC2)cc1 (stereo not drawn),2676,-1,3,2,5.9,0,-74
Cc1cccc(C(=O)NCC(=O)NCCCSc2ccccc2)c1,nt,-3,-1,-4,-2.4,1,-6
CCOC(=O)N1CCN(C(=O)COC(=O)c2ccc(S(=O)(=O)N(CC)CC)cc2)CC1,6274,4,9,10,0.4,4,-15
Cn1c(SCc2c(Cl)cccc2Cl)nc(C(F)(F)F)cc1=O,11227,6,3,5,0.8,-1,-43
CCCCOC(=O)CCc1nc2ccccc2[nH]c1=O,18710*,-4,9,4,0.3,-8,-1
Cc1ccc(/C=N/NC(=O)CCn2nc(C)cc2C)c(C)c1,3120,-1,nt,nt,nt,nt,-10
CCCCNC(=O)CCn1nc(-c2ccc(C)cc2)c2ccccc2c1=O,3804,4,-11,1,4.1,2,-5
CN(C)C(=NO)c1c(Cl)cccc1Cl,nt,nt,16,7,4.1,13,nt
COc1cc(CN2c3ccccc3C(=O)CS2(=O)=O)cc(OC)c1,4116,nt,2,1,6.6,1,5
Cc1ccccc1OCc1nnc(SCCN2CCCC2)n1-c1ccccc1,4807,7,17,10,9.9,-3,-10
CC(C)c1cccc(-c2ccc3c(c2)S(=O)(=O)c2cccc(C(=O)NC4CCCC4)c2C3=O)c1,2919,nt,-2,-3,8.2,4,-3
N#Cc1c(N2CCN(C(=O)c3ccccc3)CC2)nc(-c2ccccc2)c2c1CCCC2,2885,5,nt,nt,0.0,0,-11
CCOc1ccccc1OCCCC(=O)N1CCN(S(=O)(=O)c2cccc(F)c2)CC1,6352,3,8,9,5.4,-3,-29
Cc1cccc(C(=O)N/N=C2\CS(=O)(=O)N(C)c3ccsc32)c1,4586,6,nt,nt,nt,nt,-5
CCOC(=O)CC(NC(=O)CCS(=O)(=O)c1ccc2c(c1)n(C)c(=O)c(=O)n2C)c1ccc(C)cc1 (stereo not drawn),5435,12,5,-3,-0.5,6,1
C[C@H](NC(=O)N1CCn2c1nc1ccccc12)C(=O)NC1CCCCC1,5730,2,10,3,5.5,18,-21
CCN(CC(=O)Nc1ccc2c(c1)OCCO2)C(=O)COc1cc(C)ccc1Cl,nt,2,10,-9,1.8,9,-20
N=c1c2c(-c3ccccc3)c(-c3ccccc3)oc2ncn1Cc1ccco1,3769,-8,7,11,-0.7,-15,-4
